PINK1 modulator: A Quantitative High throughput Screen to Identify Chemical Modulators of PINK1 Expression. PINK1 immunofluorescence, high-content cytometry, 24 h. Potency, µM (titrated, usually from 76.6 µM), for inactives: top-dose activation (PINK1 increase), usual class: activators. 410,000 tested, 0.2% active. AID 624263, 2012; active = well fitted activation curve with a large enough effect; inconclusive = small, poorly fitted or top-dose-only effect; inactive = flat fitted curve, though single readings scatter; cell line not stated here;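 also: potency is read from the fitted curve at half-maximal effect; % of control where 0% means no effect; nearly all actives have a fitted effect of over 65% in size; a mitochondrial uncoupler was the plate control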
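Decision-based qHTS: stable cells, 24 h exposure to five compound concentrations, CCCP as control. Fixed cells stained for PINK1 plus nuclear, mitochondrial and cell markers, cytometer read.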
D2 ag: Beta-Arrestin HTS for Positive Allosteric Modulators of the Human D2 Dopamine Receptor: Agonists; activation, % (concentration not given with the values); 360,000 tested, 0.084% active; DiscoveRx PathHunter D2 beta-arrestin, luminescence, 90 min; 100% = 57 uM dopamine signal; in the data active = activation above about 40%; inconclusive = about 15% to 40%; inactive = below about 15%; also: compound concentration not given in the record; the text of the record calls up to 30% inactive
Target sequence (P14416 whole entry, looked up): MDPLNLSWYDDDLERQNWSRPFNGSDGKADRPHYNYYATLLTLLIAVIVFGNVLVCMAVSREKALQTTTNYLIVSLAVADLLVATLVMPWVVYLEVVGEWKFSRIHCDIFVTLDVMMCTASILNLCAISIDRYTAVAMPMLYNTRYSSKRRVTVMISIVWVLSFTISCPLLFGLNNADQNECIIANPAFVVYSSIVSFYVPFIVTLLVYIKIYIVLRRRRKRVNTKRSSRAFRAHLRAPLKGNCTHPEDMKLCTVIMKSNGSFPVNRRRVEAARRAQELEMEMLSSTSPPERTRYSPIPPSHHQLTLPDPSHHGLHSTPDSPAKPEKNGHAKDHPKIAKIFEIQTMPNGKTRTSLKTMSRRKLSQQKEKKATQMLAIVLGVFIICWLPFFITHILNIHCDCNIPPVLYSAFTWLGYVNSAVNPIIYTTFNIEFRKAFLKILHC
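Agonist mode: compounds alone added to overnight-plated D2 PathHunter cells for 90 min at 37 C, with 57 uM final dopamine (EC100) defining full response. Beta-arrestin recruitment detected by chemiluminescent reagent, read after 1 h at ambient temperature.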
D2 PAM: Beta-Arrestin HTS for Positive Allosteric Modulators of the Human D2 Dopamine Receptor: Potentiators. D(2) dopamine receptor (Homo sapiens), P14416. DiscoveRx D2 beta-arrestin cells, luminescence, 90 min; 100% = 57 uM dopamine signal. potentiation, % (no concentration beside the values). 360,000 tested, 0.23% active. AID 624464, 2012; active = potentiation of 50% or more; inconclusive = 30% to 50%; inactive = 30% or less;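 also: compound concentration not given in the record; tested on top of an EC20 dose of dopamine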
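PathHunter D2 cells, attached overnight at 37 deg C, received compound in DMSO plus dopamine at EC20 (50 nM final) for 90 min at 37 deg C. Beta-arrestin recruitment was read as luminescence after 1 h with detection reagent at ambient temperature.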
Six1-Eya2 blk: qHTS Assay for Inhibitors of the Six1/Eya2 Interaction. Homeobox protein SIX1 (Homo sapiens) + Protein phosphatase EYA2 (Homo sapiens), …. AlphaScreen GST-Six1/His-Eya2 binding, biochemical; stronger effect = lower value; control for the full effect not named in the record. activity change, % (no concentration beside the values). 360,000 tested, 0.56% active. AID 651725, 2012; in the data active = activity change below about -65%; inconclusive = about -30% to -65%; inactive = above about -30%; also: % is scaled to controls: 0 for no effect and ±100 for the full control effect; compound concentration not given in the record
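AlphaScreen luminescence read after one hour at 37 °C in darkness. Pin-transferred compounds met GST-Six1 and His-Eya2 protein (5X stock 250 nM/500 nM) plus glutathione donor and Ni-chelate acceptor beads (5X, 50 ug/mL).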
TRPML1 agonist: qHTS for Agonists of the Human Mucolipin Transient Receptor Potential 1 (TRPML1); Mucolipin-1 (Homo sapiens), Q9GZU1; TRPML1-expressing cells, Ca2+ dye fluorescence, FDSS; host cell line not named in the record; reference of the full effect not given here; activation, % (test concentration not listed); 410,000 tested, 0.12% active; AID 624414, 2012; in the data active = activation above about 50%; inconclusive = about 30% to 50%; inactive = below about 30%; also: 0% is about no effect; the text of the record puts the active cut at 80%
Target sequence (Q9GZU1 whole entry, looked up): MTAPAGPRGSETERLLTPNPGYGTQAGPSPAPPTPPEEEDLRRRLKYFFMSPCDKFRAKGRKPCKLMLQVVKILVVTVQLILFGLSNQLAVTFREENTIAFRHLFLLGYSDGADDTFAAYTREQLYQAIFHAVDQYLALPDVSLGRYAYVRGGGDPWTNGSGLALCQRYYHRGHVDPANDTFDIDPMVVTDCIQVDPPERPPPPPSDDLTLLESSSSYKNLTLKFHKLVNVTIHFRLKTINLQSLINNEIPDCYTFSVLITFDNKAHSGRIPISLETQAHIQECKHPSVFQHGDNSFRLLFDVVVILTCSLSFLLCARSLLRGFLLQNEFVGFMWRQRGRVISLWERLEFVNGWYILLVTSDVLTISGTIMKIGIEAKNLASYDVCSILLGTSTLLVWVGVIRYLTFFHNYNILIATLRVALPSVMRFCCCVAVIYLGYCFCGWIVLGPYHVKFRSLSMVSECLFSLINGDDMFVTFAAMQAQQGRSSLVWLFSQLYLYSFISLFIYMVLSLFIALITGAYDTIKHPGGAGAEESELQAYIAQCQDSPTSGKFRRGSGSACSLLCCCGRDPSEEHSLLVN
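Tet-induced TRPML1-DL cells, 1,500 per well, cultured overnight, were loaded with a no-wash Ca2+ dye for 45–90 min. Calcium fluorescence was recorded on the FDSS for 110 s after compound addition, before the EC80 agonist (4 uM 54-4) was added.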
CtBP-E1A blk: qHTS Assay for Inhibitors of the CtBP/E1A Interaction; 340,000 tested, 0.49% active; CtBP / adenovirus E1A interaction (AlphaScreen); AlphaScreen GST-E1A/His-CtBP binding, 1536-well; stronger effect = lower value; control for the full effect not named in the record; AID 651724, 2012; activity change, % (test concentration not listed); in the data active means activity change below about -65%; inconclusive means about -30% to -65%; inactive means above about -30%; also: % is scaled to controls: 0 for no effect and ±100 for the full control effect; compound concentration not given in the record
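Protein mix (5X: 125 nM each GST-E1A, His-CtBP) was incubated with pinned compound 2 h at 37 deg C in dark, in 50 mM Tris pH 8.0 buffer with 300 mM NaCl. Glutathione donor and nickel acceptor beads followed; AlphaScreen signal read after 1 h.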
The depositor's hits bear a star; ? = inconclusive; . = no result given; & = joins results of further samples; [ ] = dose if it differs, or a comment.

A first look, 4 compounds:
Every second line gives: PINK1 modulator, D2 ag, D2 PAM, Six1-Eya2 blk, TRPML1 agonist, CtBP-E1A blk
- Cc1sc(N/N=C/c2cccnc2)nc1-c1ccc(Cl)cc1
  12%, 5.3, ?, -3, 0.2, -2
- O=C(NCC(c1cccs1)N1CCOCC1)c1ccc([N+](=O)[O-])cc1 (configuration not stated)
  5.0%, -6.3, -8, 9, -0.1, 2
- CC(C)C(NS(=O)(=O)c1ccc2c(c1)OCCCO2)C(=O)O (configuration not stated)
  0.1%, -1.9, -4, 7, 0.6, 4
- O=S(=O)(c1ccc(Nc2ccc(-c3ccc4c(c3)OCCO4)nn2)cc1)N1CCCC1
  9.7%[38.3 µM], 3.1, -9, -26, 1.1, ?

Main list, from the first entry:
Every second line gives: PINK1 modulator, D2 ag, D2 PAM, Six1-Eya2 blk, TRPML1 agonist, CtBP-E1A blk
- Cc1sc(N/N=C/c2cccnc2)nc1-c1ccc(Cl)cc1
  12%, 5.3, ?, -3, 0.2, -2
- O=C(NCC(c1cccs1)N1CCOCC1)c1ccc([N+](=O)[O-])cc1 (configuration not stated)
  5.0%, -6.3, -8, 9, -0.1, 2
- CC(C)C(NS(=O)(=O)c1ccc2c(c1)OCCCO2)C(=O)O (configuration not stated)
  0.1%, -1.9, -4, 7, 0.6, 4
- O=S(=O)(c1ccc(Nc2ccc(-c3ccc4c(c3)OCCO4)nn2)cc1)N1CCCC1
  9.7%[38.3 µM], 3.1, -9, -26, 1.1, ?
- O=C(CCN1CCN(S(=O)(=O)c2cccc([N+](=O)[O-])c2)CC1)Nc1ccccc1F
  -1.1%, -1.9, 13, -7, -0.8, -6
- CC(=O)c1sc(-c2ccc(Cl)cc2)nc1C
  -0.8%, 2.3, -5, 5, -0.8, 2
- CSCCC(C(=O)OC1CCOC1=O)N1C(=O)c2ccccc2C1=O (configuration not stated)
  0.1%, -3.0, 0, 1, 0.0, -3
- O=C1N=c2ccccc2=C1c1sc(=S)n(CC2CCCO2)c1O (configuration not stated)
  3.6%, 13, 108*, -4, -0.6, 2
- Cc1nc(NC(=O)c2ccc(OCC(C)C)cc2)sc1Cc1ccc2c(c1)OCO2
  7.5%, -3.5, -2, -7, 0.9, .
- O=C1CN(C(=O)c2ccc(F)c(S(=O)(=O)N3CCOCC3)c2)c2ccccc2N1
  1.9%, -4.6, -1, 3, -1.2, 1
- Cc1ccc(C(=O)Nc2nc(=O)n(C(=O)c3ccccc3C)s2)cc1
  -3.1%, -4.5, -9, -2, 2.9, -1
- NC(=O)c1ccc(NC(=O)COC(=O)c2c3c(nc4ccccc24)/C(=C\c2cccs2)CCC3)cc1
  -0.1%, -7.0, -8, 1, 0.5, .
- CC(C)(C)c1ccc(-n2ncc3c2CCCC3NC(=O)CCC2=NNC(=O)CC2)cc1 (configuration not stated)
  2.4%, -3.7, -13, 1, 0.6, -4
- Cc1ccc(NC(=O)C2CCCN(S(=O)(=O)c3ccc(-n4cnnn4)cc3)C2)cc1 (configuration not stated)
  3.1%, -1.3, 1, -6, -0.1, 0
- COc1ccc(NC(=O)C2CCCCC2)cc1S(=O)(=O)N1CCOCC1
  1.7%, -1.5, -4, 1, 0.3, 0
- O=C(CCc1nnc2n(Cc3ccc(Cl)cc3)c(=O)c3ccccc3n12)NCCCN1CCOCC1
  0.5%, -1.6, -8, 2, 0.1, -10
- COc1ccc(C(C)(NC(C)=O)c2nc(-c3cccc(C(=O)O)c3)cs2)cc1 (configuration not stated)
  2.9%, -9.1, -6, 1, -0.5, -15
- Cc1ccccc1Nc1nc(N)nc(COc2ccc(C#N)cc2)n1
  3.4%, 0.8, -14, -3, -0.4, -3
- Cc1cc2c(=O)oc(-c3ccc(Br)cc3)nc2s1
  0.0%, -0.4, -2, 11, 1.6, 7
- Cc1ccc(F)c(S(=O)(=O)NC(=O)C2(C)CCN2C(=O)Cc2ccc(C(C)(C)C)cc2)c1 (configuration not stated)
  0.2%, -5.5, 5, 6, -0.5, 0
- COc1ccc2nc3sc(C(=O)NCCN4CCc5ccccc5C4)cc3cc2c1
  8.4%, ?, -18, ?, -0.6, -17
- COc1ccc(Cl)cc1N(C(C)=O)c1nc(C)cc(C)c1C#N
  -0.9%, -2.3, 2, -2, -0.2, .
- COC(=O)Cc1c(C)nc2nc(NCc3c(F)cccc3Cl)[nH]n2c1=O
  3.6%, -1.3, -15, -1, -0.1, 3
- CC(C)c1ccc2nc3sc(C(=O)N4CCc5ccccc5C4)c(N)c3cc2c1
  4.2%[38.3 µM], -3.8, -12, 32, 14, 31
- Cc1ccccc1CC(=O)N1CCN(C(=O)c2ccco2)CC1
  -0.6%, -1.9, -10, 6, -0.4, 6
- CCC1=[N+](CC(=O)c2ccc(C)cc2)CCn2c(C)ccc21
  ?, -4.1, -17, 15, -0.8, 4
- COc1ccc(NC(=O)COC(=O)CCC2CCCCC2)cc1
  1.1%, -1.1, -6, -1, 1.8, 18
- CCOc1ccc(CCNC(=O)c2cccc(NC3=NC4CS(=O)(=O)CC4S3)c2)cc1 (configuration not stated)
  -0.8%, -3.1, -4, 10, -0.2, -1
- O=C(C1CC1)N1CCCC(c2ccc(Cl)cc2)=N1
  2.8%, -4.9, -18, 0, 0.3, 4
- NC(=O)CSc1nnc2sc3ccccc3n12
  1.9%, -3.8, -1, -8, 3.4, -4
- N#Cc1cc(-c2ccccc2)nn1-c1ccccc1
  0.0%, -0.8, ?, 20, 0.8, 24
- O=S(=O)(c1ccccc1)N1CCN=C1SCc1ccc(Cl)c(Cl)c1
  -0.5%, 0.4, ?, 17, 14, 42
- O=C(NC1CCCCC1)C1CCN(C(=O)c2ccccc2Cl)CC1
  1.7%, -2.5, -3, 5, 0.4, -13
- COc1ccc(-n2c(=O)[nH]cc(C(=O)Nc3ccc4c(c3)OCO4)c2=O)cc1OC
  -3.0%, -2.8, 9, 1, 0.0, 9
- Cn1c(CC(=O)Nc2ccccc2Cl)nnc1SCC(=O)NC1CCCCC1
  -0.4%, -0.3, -5, 3, 0.4, -3
- CCN(CC(=O)Nc1cc(C)nn1-c1nc(C)cc(C)n1)Cc1ccccc1
  1.8%, -8.5, -19, 3, 0.4, -10
- Cc1ccc(C)c(OCCCC(=O)Nc2ccccc2C(N)=O)c1
  3.9%, -5.2, -12, -3, 1.4, .
- CC1(C)Cc2c(C#N)c(OCC(=O)c3ccc(Cl)cc3)nc(-c3ccco3)c2CO1
  6.7%, -1.0, -8, 6, -0.8, 5
- O=Cc1ccc(Oc2cccc(C(F)(F)F)c2)nc1
  0.7%, -0.9, -2, -6, -0.3, 8
- Cc1cc(C(F)(F)F)nn1CC(=O)NCc1ccco1
  0.0%, -3.3, -6, -5, 0.1, .
- Cc1cc(C)[n+](C)n1CC(O)Cn1c2ccccc2c2ccccc21 (configuration not stated)
  0.8%, 7.5, -10, -1, -0.3, .
- CCN(CC)CC(=O)c1c[nH]c2ccc(C)cc12
  -0.1%, -2.6, -3, 3, -0.7, 5
- Cn1c(=O)c(=O)n(C)c2cc(S(=O)(=O)N3CCN(c4ccccc4F)CC3)ccc21
  ?, -5.5, -19, 1, -0.6&-0.3, 8
- CCc1nc2ccc(C(=O)N(C)C(C)C)cn2c1N(CC)Cc1cccc(Br)c1
  0.1%, -1.8, -7, 3, -0.7, -1
- O=C(CN(C(=O)Cn1nnc(-c2ccc(F)cc2)n1)c1cnc2ccccc2c1)NCC1CCCO1 (configuration not stated)
  0.1%, -4.5, -7, 1, -0.9, 0
- Cc1ccccc1CN1CCN(c2ccc(S(=O)(=O)N3CCCC3)cn2)CC1
  0.5%, -4.2, -25, -1, 2.2, 9
- COc1ccc(-c2nnc3ccc(SCC(=O)Nc4nc5ccc(C)cc5s4)nn23)cc1OC
  10%, -0.8, -11, -9, -0.6, -2
- COc1ccc(-c2noc(C3CCCN(S(=O)(=O)c4ccc(C)c(Cl)c4)C3)n2)cc1OC (configuration not stated)
  0.7%, -2.1, 6, 1, -0.4, 0
- CC1=NNC(=O)C1CC(=O)N/N=C/c1cccs1 (configuration not stated)
  -0.4%, -4.3, -20, 3, -0.9, .
- Cc1ccc(NC(=O)CCS(=O)(=O)c2ccc3c(c2)NC(=O)C(C)S3)nc1 (configuration not stated)
  -1.0%, 3.2, -6, 9, 0.5, .
- Cc1cccc(NC(=O)c2nc[nH]c2C(=O)NCCCCCCNC(=O)c2[nH]cnc2C(=O)Nc2cccc(C)c2)c1
  -0.2%, -5.3, 0, -3, -0.3, 1
- N#CCOc1nc(N2CCOCC2)nc(N2CCOCC2)n1
  -3.4%, -3.4, 4, 3, -0.7, -1
- O=C(NCCc1ccccc1)C(=O)NCCC1CCCCN1S(=O)(=O)c1cccs1 (configuration not stated)
  -0.5%, 1.1, 6, 6, 1.6, -15
- Cc1ccc(NC(=O)CN2CCCC2)c2c1CC(C)(C)O2
  1.3%, -5.6, -22, 4, -0.3, 2
- Nc1cccc(-c2nc3ncccc3o2)c1
  -0.7%, -0.7, -4, -5, 0.4, 0
- CCCn1c(=O)c2c(nc3n2CCS3)n(C)c1=O
  -0.2%, 2.4, -3, -2, 0.0, 11
- CC1CCN(c2cc(N3CCN(C(=O)c4ccc(F)c(F)c4)CC3)c([N+](=O)[O-])cc2F)CC1
  -0.1%, -0.8, -12, -1, 0.8, -9
- Cc1ccccc1N(CC(=O)NCC1CCCO1)C(=O)CCC(=O)Nc1nccs1 (configuration not stated)
  3.6%, -6.2, -1, -4, -0.5, 7
- Cc1nn(CC(=O)NCCN2CCOCC2)c(=O)c2cc3sccc3n12
  -1.2%, -5.5, -5, 3, 0.8, .
- COc1ccc(N2CC(NS(=O)(=O)c3cccnc3)CC2=O)cc1 (configuration not stated)
  1.7%, -5.5, -5, 9, -1.1, 0

Next section.
Every second line gives: PINK1 modulator, D2 ag, D2 PAM, Six1-Eya2 blk, TRPML1 agonist, CtBP-E1A blk
- CC(C(=O)OCC(=O)c1ccc(Br)cc1)N1C(=O)C2C3CCC(C3)C2C1=O (configuration not stated)
  0.0%, -0.9, -3, -2, 0.3, -12
- CC(C)c1ccc(NC(=O)CN2C(=O)COc3ccc(S(=O)(=O)N4CCOCC4)cc32)cc1
  7.3%&3.5%, -5.5, -2, -8, -0.7&2.9, .
- CC(Sc1ccccc1)C(=O)NN=C1CCN(C)CC1 (configuration not stated)
  -0.6%, 1.2, -5, 4, -0.4, -15
- COc1ccc(CCN(C)CCc2ccc(OC)c(OC)c2)cc1OC
  -0.5%, -4.9, -28, 1, 0.9, -9
- CCCNC(=S)N1CC2(C)CN(C(=O)C(=O)OCC)CC(C)(C1)C2=O
  2.1%, -4.3, -3, 1, -0.6, 9
- CCN(CC)c1ccc(CNCc2cccs2)cc1
  -0.2%, -2.5, -14, -28, 0.5, -17
- CCOC(=O)c1cccc(NC(=O)CC2Oc3ccccc3NC2=O)c1 (configuration not stated)
  2.1%, 1.9, -25, -7, -0.3, .

Screening results (PubChem)
